miR-21 reporter = miR-21 reporter, rising signal; HeLa miR-21 FLuc reporter, luciferase, 48 h; Potency, µM (doses to about 38.3 µM), without a hit: at the highest dose reporter change, positive = more light; 340,000 tested, under 10 active; AID 2288; active = well fitted rising curve with a large enough effect; inconclusive = small, poorly fitted or top-dose-only effect; inactive = no such curve, though single readings can be large or run the other way;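 further: % of control where 0% means no effect; miR-21 action dims this reporter so a rising signal means less miR-21 action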
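Using DMEM plus 10% FBS, HeLa miR-21-FLuc cells are incubated with test compounds (final up to about 40uM) for 48 hours; firefly luciferase signal is then imaged following reagent-mediated lysis.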
Active calls of the source: *; ? = inconclusive.

no.	Structure	miR-21 reporter
1	CN(C)c1ccc(NC(=O)CN2CCN(CC(=O)Nc3ccc(Br)cc3)CC2)cc1	2%
2	COc1ccc(CNC(=O)CCc2c(C)nn(-c3ccc(N4CCCCC4)nn3)c2C)cc1	11%
3	COc1cccc(Cn2cc(S(=O)(=O)c3ccc(C)cc3)c(=O)c3cc4c(cc32)OCO4)c1	-26%
4	CCC(CC)C(=O)Nc1cccc(-c2nc3cccnc3s2)c1C	0%
5	CC(=O)Nc1cccc(NC(=O)c2cc3c(=O)n4cccc(C)c4nc3n2C)c1	1%
6	CC(C)c1ccc(NC(=O)c2cc(S(=O)(=O)NCCC3=CCCCC3)ccc2F)cc1	20%
7	CC(C)(C)c1ccc(C(=O)N2CCC(c3nc4ccccc4o3)CC2)cc1	-6%
8	CCOc1ccccc1NC(=O)CN(C)S(=O)(=O)c1ccc(C(=O)N2CCOCC2)s1	-5%
9	CCOc1ccc(NC(=O)N2CCC(n3c(C)nc4cccnc43)CC2)cc1	-8%
10	CCN(CC)S(=O)(=O)c1ccc2c(c1)c(=O)c(C(=O)NCc1ccc(Cl)cc1)cn2C	-11%
11	Cc1cccc2c(=O)cc(CSc3ccccc3NC(=O)C(C)(C)C)[nH]c12	-7%
12	Cc1ccccc1C(=O)Nc1cccc(C(=O)OCc2cc(=O)n3ccsc3n2)c1	4%
13	Cc1ccc(CNC(=O)C(C)n2c(=O)cc(-c3ccccc3)c3c(C)nn(C)c32)cc1 (stereo not drawn)	-6%
14	COc1ccc(C(=O)Nc2ccc(/C(C)=N/NC(=O)c3ccncc3)cc2)cc1	-36%
15	Cn1cc(-c2cc3n(n2)CCC(=O)N3CC(=O)NCc2ccc(Cl)cc2)c2ccccc21	1%
16	Cc1ccccc1C(=O)OCc1cc(=O)n2nc(-c3cccs3)sc2n1	-8%
17	COc1ccc(OC)c(NC(=O)Cn2c(=O)c3cccn3c3ccccc32)c1	28%
18	CCOC(=O)c1cnc2c(C)cc(C)cc2c1Nc1ccccc1OCC	1%
19	CCC(Sc1nncn2c1cc1sccc12)C(=O)Nc1cccc(OC)c1 (stereo not drawn)	-1%
20	Cn1c(=O)c2c(SCC(=O)N3CCc4ccccc43)nc(-c3cccc(F)c3)nc2n(C)c1=O	0%
21	Cc1cccc(C)c1Nc1c(-c2ccc(Cl)s2)nc2ncccn12	7%
22	COc1ccc(C)cc1NC(=O)C(=O)NCC(c1cccnc1)N1CCN(c2ccccc2F)CC1 (stereo not drawn)	3%
23	O=C(c1cc([N+](=O)[O-])ccc1N1CCOCC1)N1CCN(c2ccccc2)CC1	12%
24	COc1cc(C2CC(=O)Nc3ccc4ccccc4c32)ccc1OC(=O)C(C)C (stereo not drawn)	-8%
25	COc1ccccc1CNC(=O)Cn1c(=O)nc(-c2ccccc2)c2ccccc21	2%
26	Cc1cccc(/C=N/NC(=O)c2ccc3c(c2)OCCO3)c1O	11%
27	Cc1ccc(Nc2c(-c3ccc(Br)o3)nc3ccccn23)cc1	-36%
28	Cn1cnc(S(=O)(=O)N2CCC(C(=O)NCc3ccccc3)CC2)c1	3%
29	O=C(NCc1ccc2c(c1)OCO2)c1ccc2c(c1)N(Cc1ccccc1F)C(=O)c1ccccc1S2=O (stereo not drawn)	-13%
30	Cc1cccc2sc(N(Cc3cccnc3)C(=O)COc3ccccc3)nc12	-5%
31	CCN(Cc1ccccc1)C(=O)CCS(=O)(=O)c1cc(Br)cc2c1N(C(=O)C1CC1)CC2	6%
32	O=C1c2ccccc2C(=O)C2OC12 (stereo not drawn)	9%
33	CC(COc1ccc(C(C)C)cc1)NC(=O)c1ccc(Br)o1 (stereo not drawn)	-7%
34	CCc1nn(CC(=O)NCc2cccc(OC)c2OC)c(=O)c2cc3occc3n12	4%
35	CC(C)(C)C(=O)NCC(c1ccc2c(c1)OCO2)N1CCOCC1 (stereo not drawn)	-5%
36	CCN(CC)c1cc(C)nc2nc(-c3ccc(C)cc3)nn12	-26%
37	Cc1ccc(Cl)cc1NC(=O)/C(C#N)=C/c1c(C)n(Cc2ccccc2)c2ccccc12	-3%
38	CCOc1ccc(C2=NC(c3cccs3)=Nc3ccc(CC)cc3N2)cc1OCC	-4%
39	COc1ccc(Cn2c(=O)[nH]c3cc(C(=O)NCCC(C)C)ccc3c2=O)cc1	2%
40	Cc1ccccc1CN1C(=O)c2ccccc2S(=O)c2ccc(C(=O)NCc3ccc4c(c3)OCO4)cc21 (stereo not drawn)	2%
41	CCCC(=O)Nc1cccc(-c2nc3cc(C)c(C)cc3o2)c1C	2%
42	Cc1cc(NC(=O)c2ccc3c(c2)N(Cc2cccc(Cl)c2)C(=O)c2ccccc2S3(=O)=O)ccc1Br	3%
43	Cc1ccc(-n2nc(C)c3c(C)cc(=O)n(CC(=O)NC(C)c4ccccc4)c32)cc1 (stereo not drawn)	1%
44	COc1ccc(N2CCN(C(=O)c3cnn(-c4ccc(F)cc4)c3-n3cccc3)CC2)cc1	1%
45	CCOc1ccc(-c2nc(SCC(=O)NCCCOC)c(-c3ccccc3)[nH]2)cc1	-4%
46	CCOC(=O)c1sc(NC(=O)/C=C/c2ccc(OCC)cc2)c(C(=O)OCC)c1C	-2%
47	CCOC(=O)C1CCN(C(=O)c2ccc(NC(=O)c3nsc4ccccc34)cc2)CC1	-5%
48	O=C(Nc1ncccn1)c1ccc([N+](=O)[O-])cc1Cl	1%
49	O=C(NCc1nc2ccccc2[nH]1)c1cccc(Cl)c1	-14%
50	Cc1ccc(S(=O)(=O)C(CNC(=O)C(=O)NCc2ccccc2C)c2cccs2)cc1 (stereo not drawn)	13%

Additional entries follow.
no.	Structure	miR-21 reporter
51	O=C(Cc1csc2ccccc12)NCc1cccc(Br)c1	-6%
52	Cc1ccccc1OCC(=O)OCc1cc(=O)n2nc(C3CC3)sc2n1	-1%
53	Cc1ccc(-n2c(=O)c3cccnc3n2CC(=O)Nc2ccc(C)cc2Cl)cc1	6%
54	CCOc1ccc(Cn2c(-c3ccc(OCC)c(OC)c3)nc3ccccc32)cc1OC	-17%
55	CCc1cccc(CC)c1NC(=O)C(Cc1ccccc1)NS(=O)(=O)c1cccc2nsnc12 (stereo not drawn)	9%
56	CC(=O)c1ccc(NC(=O)COc2ccccc2-c2nc(-c3cccc(C)c3)no2)cc1	5%
57	CCOc1ccc(-n2nc3ccc(NC(=O)COc4ccccc4)cc3n2)cc1	5%
58	O=C1Cc2cc(S(=O)(=O)Nc3cccc(C(F)(F)F)c3)cc3c2N1CCC3	-1%
59	CCC(=O)Nc1ccc2nc(SCCOc3ccccc3)sc2c1	-17%
60	CCOc1ccc(OCC(=O)Nc2ccc(S(=O)(=O)Nc3cc(C)on3)cc2)cc1	-7%
61	Cc1ccc(Cl)cc1N1CCN(C(=O)CCC(=O)Nc2ccc3nc(N4CCC(C)CC4)cc(C)c3c2)CC1	-3%
62	COc1ccc(OCC(=O)NC(Cc2c[nH]c3ccccc23)C(=O)O)cc1 (stereo not drawn)	2%
63	CCOc1ccc(-c2nnc(SCC(=O)NCc3ccc(C)cc3)nc2-c2ccc(OCC)c(OC)c2)cc1OC	-1%
64	CC1(C)CC(=O)c2cc(C(=O)Nc3ccc(Br)cc3)c(=O)[nH]c2C1	-21%
65	Cc1ccc(CSc2nc3c([nH]c4ccccc43)c(=O)n2C)cc1	3%
66	Cc1cc(C)c2nc(N3CCCC(C(=O)NCc4cccc(Cl)c4)C3)sc2c1 (stereo not drawn)	5%
67	CCc1nc2c(cnn2-c2ccc(C)cc2)c(=O)n1Cc1ccccc1	5%
68	CCc1c(C)sc2c1CCN(C(=O)Nc1cc(OC)c(OC)c(OC)c1)C2c1ccccc1 (stereo not drawn)	15%
69	Cc1noc(NS(=O)(=O)c2ccc(NC(=O)c3ccc(Br)cc3)cc2)c1C	-10%
70	COc1ccc(C)cc1NC(=O)NCc1ccc2c(c1)CCN2C(=O)c1ccccc1	26%
71	Cc1ccc2nc(COc3ccccc3NC(=O)c3ccccc3C)cc(=O)n2c1	0%
72	Cc1ccc(C)c(N2CCN(S(=O)(=O)c3ccc(-c4cc(C(F)(F)F)on4)s3)CC2)c1	-3%
73	Cc1cccc(Oc2nc3c(c(=O)n(C)c(=O)n3C)n2Cc2ccccc2)c1C	0%
74	COc1ccc(N2CCN(Cc3nc4c(c(=O)[nH]c(=O)n4C)n3Cc3ccccc3C)CC2)cc1	1%
75	CCN(C(=O)C1CCCN(c2ncnc3onc(-c4ccc(F)cc4)c23)C1)c1ccccc1 (stereo not drawn)	-11%
76	CCOc1ccc(-n2nc(CO)c(C(=O)NCC(C)O)n2)cc1 (stereo not drawn)	-15%
77	Cc1ccc(NC(=O)c2cccc(NC(=O)N3CCSc4ncccc43)c2)cc1F	17%
78	CC1CCN(S(=O)(=O)c2ccc3c(c2)N(CC(=O)NCc2ccccc2Cl)C(=O)CO3)CC1	-5%
79	O=C(CCc1ccccc1)NCc1ccc2c(c1)CCN2C(=O)c1ccc(Cl)cc1	7%
80	Cn1c(=O)c2c(nc(SCC(=O)Nc3ccccc3)n2Cc2ccccc2F)n(C)c1=O	0%
81	O=C(Nc1cc(-c2nc3ccccc3o2)ccc1Cl)c1ccc(Br)o1	-25%
82	O=C(NCCc1ccccc1)C1(c2cccs2)CCOCC1	-1%
83	O=c1c2cc3c(cc2nc2sc(Nc4ccccc4)nn12)OCO3	-49%
84	CC1=C(C(=O)Nc2ccccc2)C(c2ccncc2)n2nc(SCc3ccccc3F)nc2N1 (stereo not drawn)	7%
85	Cc1ccc(N2CC(NC(=O)c3cc4ccccc4o3)CC2=O)cc1C (stereo not drawn)	-1%
86	Cc1ccccc1OCc1nc2c3cnn(-c4cccc(F)c4)c3ncn2n1	3%
87	COc1ccc(CCNC(=O)c2c3c(nc4ccccc24)C(=O)N(C2CCCCC2)C3)cc1OC	1%
88	Cc1nn(-c2ccccc2)c2sc(C(=O)Nc3cccc(Br)c3)cc12	?
89	COc1ccccc1Nc1nn2c(=O)c3ccc(C(=O)NCCC4=CCCCC4)cc3nc2s1	?
90	COc1ccc(NC(=O)CSc2nnc(-c3nonc3NC(C)=O)n2-c2ccccc2)cc1	6%
91	COc1ccc(NC(=O)CCc2c(C)nc3c(c2C)c(=O)n(C)c(=O)n3C)cc1OC	1%
92	Cc1ccc2nc(-c3ccsc3)c(Nc3ccc(Cl)cc3)n2c1	-14%
93	O=C(CCn1c(=O)c2cccn2c2cccnc21)NCc1ccc(Cl)cc1	-21%
94	Cc1cccc2nc(-c3cccc(NS(=O)(=O)c4ccccc4)c3)cn12	-22%
95	Cc1nc2nc(NC(=O)c3ccccc3F)[nH]n2c(=O)c1Cl	4%
96	Cc1ccc(C(=O)OC2=C(C(=O)c3ccccc3)N(C)S(=O)(=O)c3ccccc32)cc1	-2%
97	CCc1cccc(N2C(=O)N(Cc3c(F)cccc3Cl)c3ccccc3S2(=O)=O)c1	2%
98	O=C(O)Cc1ccc(NC2(c3ccccc3)C(=O)c3ccccc3C2=O)cc1	1%
99	CCNc1sc(S(C)(=O)=O)nc1S(=O)(=O)c1ccc(C)cc1	-2%
100	Cc1cc(C)n(-c2nc3cc(Cl)ccc3nc2Nc2ccc(CC(=O)O)cc2)n1	-2%

Further compounds follow:
no.	Structure	miR-21 reporter
101	COc1ccccc1N1CCN(c2csc3ccc(Cl)cc3c2=O)CC1	9%
102	CCc1ccc(CNC(=O)C2COc3ccc(OC)cc3C2)cc1 (stereo not drawn)	-12%
103	COc1ccccc1CNC(=O)CCc1c(C)nn(-c2ccc(N3CCOCC3)nn2)c1C	-7%
104	N#Cc1ccc(NC(=O)COCc2cc(-c3ccc4c(c3)OCO4)on2)cc1	-5%
105	Cn1c(=O)c2nc(SCC(=O)Nc3cc(Cl)ccc3Cl)n(C)c2n(C)c1=O	5%
106	CCOc1ccc(OCC)c(NC(=O)Cn2ncc3c4ccccc4n(Cc4ccccc4)c3c2=O)c1	-4%
107	CCCC(O)c1nc2ccccc2n1CCCOc1ccc(Cl)cc1 (stereo not drawn)	-28%
108	Cc1ccc(N2CCN(C(=O)c3c(C)oc4nc(C)nc(N5CCCC5)c34)CC2)c(C)c1	-5%
109	Cn1c(=O)c2c(nc(SCC(=O)Nc3ccc(F)cc3)n2Cc2ccccc2)n(C)c1=O	0%
110	Cc1nc(N2CCOCC2)c2c(C(=O)N(C)Cc3ccccc3)c(C)oc2n1	-14%

By substructure: the compounds so far containing fluorine
no.	Structure	miR-21 reporter
6	CC(C)c1ccc(NC(=O)c2cc(S(=O)(=O)NCCC3=CCCCC3)ccc2F)cc1	20%
20	Cn1c(=O)c2c(SCC(=O)N3CCc4ccccc43)nc(-c3cccc(F)c3)nc2n(C)c1=O	0%
22	COc1ccc(C)cc1NC(=O)C(=O)NCC(c1cccnc1)N1CCN(c2ccccc2F)CC1 (stereo not drawn)	3%
29	O=C(NCc1ccc2c(c1)OCO2)c1ccc2c(c1)N(Cc1ccccc1F)C(=O)c1ccccc1S2=O (stereo not drawn)	-13%
44	COc1ccc(N2CCN(C(=O)c3cnn(-c4ccc(F)cc4)c3-n3cccc3)CC2)cc1	1%
58	O=C1Cc2cc(S(=O)(=O)Nc3cccc(C(F)(F)F)c3)cc3c2N1CCC3	-1%
72	Cc1ccc(C)c(N2CCN(S(=O)(=O)c3ccc(-c4cc(C(F)(F)F)on4)s3)CC2)c1	-3%
75	CCN(C(=O)C1CCCN(c2ncnc3onc(-c4ccc(F)cc4)c23)C1)c1ccccc1 (stereo not drawn)	-11%
77	Cc1ccc(NC(=O)c2cccc(NC(=O)N3CCSc4ncccc43)c2)cc1F	17%
80	Cn1c(=O)c2c(nc(SCC(=O)Nc3ccccc3)n2Cc2ccccc2F)n(C)c1=O	0%
84	CC1=C(C(=O)Nc2ccccc2)C(c2ccncc2)n2nc(SCc3ccccc3F)nc2N1 (stereo not drawn)	7%
86	Cc1ccccc1OCc1nc2c3cnn(-c4cccc(F)c4)c3ncn2n1	3%
95	Cc1nc2nc(NC(=O)c3ccccc3F)[nH]n2c(=O)c1Cl	4%
97	CCc1cccc(N2C(=O)N(Cc3c(F)cccc3Cl)c3ccccc3S2(=O)=O)c1	2%
109	Cn1c(=O)c2c(nc(SCC(=O)Nc3ccc(F)cc3)n2Cc2ccccc2)n(C)c1=O	0%

A portion of the library; rates above refer to the full screens.
